NPYLR7 agonist: activates Aedes aegypti NPYLR7 receptor; HEK293T NPYLR7/Galpha15, GCaMP6s calcium fluorescence; activation, % at 10 µM; actives 0.15% (n = 270,000); in the data active = activation above about 40%;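 note: 0% = vehicle and 100% = reference agonist at the receptor; some compounds past the cut are filed as inactive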
NPYLR7 agonist max-min: recorded beside NPYLR7 agonist, whose call it bears; activation, %; measured here: Max-Min RFU normalised activation; some inactives read as strong as hits;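 span of the calcium signal over five minutes; 0% = vehicle and 100% = native peptide agonist; compound fluorescence can raise it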
The depositor's hits bear a star; & = joins results of further samples.

canonical_smiles	NPYLR7 agonist	NPYLR7 agonist max-min
c1ccc(-c2nnc3sc(CN4CCc5ccccc54)cn23)cc1	15	8
C/C(=C\c1ccco1)CN1CCC(CNC(=O)c2ccoc2C)C1 (stereo not drawn)	-1	-5
CCOc1ccc(-c2nccn2C2CCCC2)cc1CO	2	0
Cc1cccc(CNC(C)c2cnc(N3CCCCCCC3)nc2C)n1 (stereo not drawn)	16	7
O=C(c1cccnc1-c1ccc(-c2ccn[nH]2)cc1)N1CCCC1	7	5
CCC(C(=O)N(CC(=O)N(Cc1ccc2c(c1)OCO2)Cc1ccc(C)o1)CC(C)C)c1ccccc1 (stereo not drawn)	-5	-2
Clc1ccc2nc(CSc3nc(-c4ccccc4)c(-c4ccccc4)o3)cn2c1	-1	-5
CCn1nc(CC(C)C)cc1C(=O)N1CCCC1Cn1cccn1 (stereo not drawn)	-1	-5
CCOc1ccc(-c2nc(-c3ccccc3C)no2)cc1	-6	-14
Cc1nn(C)c(C)c1C(=O)C(=O)NNC(=O)C12CC3CC(CC(C3)C1)C2	9	15
O=C(CSc1ncnc2c1cnn2-c1ccccc1)c1ccc(O)c(O)c1	11	4
CCN1Cc2cc(OC)ccc2N(CC(O)Cc2ccccc2)CCC1=O (stereo not drawn)	3	2

Taken from above.
O=C(c1cccnc1-c1ccc(-c2ccn[nH]2)cc1)N1CCCC1 – NPYLR7 agonist = 7
CCn1nc(CC(C)C)cc1C(=O)N1CCCC1Cn1cccn1 (stereo not drawn) – NPYLR7 agonist max-min = -5
O=C(CSc1ncnc2c1cnn2-c1ccccc1)c1ccc(O)c(O)c1 – NPYLR7 agonist = 11
Cc1cccc(CNC(C)c2cnc(N3CCCCCCC3)nc2C)n1 (stereo not drawn) – NPYLR7 agonist = 16
CCC(C(=O)N(CC(=O)N(Cc1ccc2c(c1)OCO2)Cc1ccc(C)o1)CC(C)C)c1ccccc1 (stereo not drawn) – NPYLR7 agonist max-min = -2

Following part:
canonical_smiles	NPYLR7 agonist	NPYLR7 agonist max-min
CCOC(=O)CSc1nnc(NC(=O)c2ccc3c(c2)OCO3)s1	-4	-3
CCCCCCNC(=O)c1cc(-c2ccc(C)c(C)c2)nn1-c1cccc(C)c1	-4	-1
Cc1c(NS(=O)(=O)c2ccc(F)cc2Br)cccc1C(=O)O	2	3
CC1=NC2=C(C(=O)CCC2)C(c2coc3ccccc3c2=O)C1C(=O)OCC1CCCO1 (stereo not drawn)	-8	-13
CN(C)CCC1(c2ccc(Cl)cc2)Cc2ccccc2C(=O)O1 (stereo not drawn)	7	-6
Cc1cccc(NC(=O)c2cc(-c3ccc(Cl)c(Cl)c3)nc3ccccc23)n1	3	4
CCOc1c(CC)cnc2c1c(=O)n(CC(=O)N1CCCCCC1)c(=O)n2C	-5	-4
O=c1[nH]cc(S(=O)(=O)Nc2ccc(F)c(F)c2)c(=O)[nH]1	-13	-19
O=C1NC2(CCN(Cc3cccc(F)c3F)CC2)Nc2ccc(Br)cc21	-1	0
CSc1cccc(Nc2nc3ccccc3n3cnnc23)c1	6	4
Nc1nnnn1NC/C=C/c1ccc(Cl)cc1	-17	-23
Cc1cc(C)nc(SCc2cc(=O)c(OC(=O)C3c4ccccc4Oc4ccccc43)co2)n1	-6	-1
CN1CCN(c2ccc(-c3ccc4nnc(-c5ccccn5)n4c3)cc2)CC1	6	-3
C=CCNC(=O)C(C)Sc1nc2cc3ccccc3cc2c(=O)n1C (stereo not drawn)	10	6
CC(C)(C)NC(=O)CN1CCN(C(=O)NCCc2ccccc2F)CC1	10	7
Cc1nc2c(c(=O)[nH]1)CCN(C(=O)CCCc1cn[nH]c1)C2	3	1
CN(C)c1ccc(NC(=O)c2cccs2)cc1CN(Cc1cccc(F)c1)C(=O)c1ccccc1Cl	3	10
Cc1ccccc1OC1CCN(Cc2nc(COc3ccccc3)no2)CC1	12	4
COc1ccc(-n2ncc(C(=O)NCc3ccccn3)c2C)cc1	17	19
COc1ccc(Br)c(-c2nc(Cc3ccccc3OC)no2)c1	2	-2
COc1cccc(CN(Cc2ccc(F)cc2)CC(O)COCc2ccccc2)c1 (stereo not drawn)	38	45
O=C(NC1CCCCC1)[C@H](Cc1ccccc1)N1C(=O)c2ccccc2C1=O	-7	-13
Cc1ncc(C(=O)NCCCc2c(C)n[nH]c2C)c(C)n1	15	9
Cc1cccc(CO[C@]2(C(=O)NC3CC3)CC(OCc3c(F)cccc3F)[C@@H]3OC(C)(C)O[C@@H]3C2)c1 (stereo partly drawn)	15	21
Cn1c(NC(=O)C2c3ccccc3Oc3ccccc32)cc(=O)n(C)c1=O	9	11
Cc1ccc(F)c(C(=O)N2CCN(c3ncccc3NC(=O)c3ccc4c(c3)OCO4)CC2)c1F	5	2
CCCNC(=O)c1nnn(-c2ccccc2)c1C	5	3
CC1CN(C(=O)C(C)Sc2nc3ccccc3s2)CC(C)O1 (stereo not drawn)	0	-2
c1ccc(-c2nc3c4ccccc4nc(SCc4ccncc4)n3n2)cc1	0	0
CCCCN(CC(=O)N(CCc1c[nH]c2ccccc12)Cc1ccccc1)S(=O)(=O)c1cccc2ccccc12	17	14
CC(SCC1CCCO1)C(=O)Nc1ccc2c(c1)CCC2 (stereo not drawn)	12	4
O[C@@H]1C[C@H]2CN(Cc3cnc(-c4cccc5ccccc45)nc3)C[C@H]2C[C@@H]1O	-1	-1
Cc1ccc(C2c3c(n(CC(C)C)c(=O)[nH]c3=O)N=C3COC(=O)C32)cc1 (stereo not drawn)	6	13
O=C(NCC(=O)N1CCN(Cc2ccc(OC(F)(F)F)cc2)CC1)c1ccco1	10	7
Cc1nc2ccccc2n1CO	-5	-9
O=S(=O)(Nc1ccc(OC(F)F)c(Cl)c1)c1ccc(F)c(Cl)c1	5	6

3 compounds from above, ordered by formula weight, high to low.
canonical_smiles	NPYLR7 agonist	NPYLR7 agonist max-min
O=C(NCC(=O)N1CCN(Cc2ccc(OC(F)(F)F)cc2)CC1)c1ccco1	10	7
CC(SCC1CCCO1)C(=O)Nc1ccc2c(c1)CCC2 (stereo not drawn)	12	4
Cc1nc2ccccc2n1CO	-5	-9

The listing continues:
canonical_smiles	NPYLR7 agonist	NPYLR7 agonist max-min
CN1CCNC(=O)C12CCN(C(=O)c1nc(-c3ccccc3)cs1)CC2	25	12
CCCCC(CC)C(=O)Nc1ccc(N2CCN(c3ccccc3OC)CC2)c(C(=O)NCc2ccc(F)cc2)c1 (stereo not drawn)	21	26
C=CC(O)c1nnc(Nc2cc(OC)c(OC)c(OC)c2)s1 (stereo not drawn)	1	1
Cc1ccc(-c2csc3nc(CSc4nnc(C5CC5)n4C)[nH]c(=O)c23)s1	8	6
Cc1ccc(CCN(N=O)c2ccccc2)cn1	2	1
COc1ccccc1CC(=O)N(C)Cc1nc2ccsc2c(=O)[nH]1	11	1
CC1CCc2sc(C(=O)OCC(=O)N3c4ccccc4NC(=O)C34CCCC4)cc2C1 (stereo not drawn)	8	5
COc1cc(C)c(-c2cccc(-n3cnnc3)c2)c(C)c1	-5	-5
O=[N+]([O-])c1cccnc1Oc1ccc(Oc2ccccc2)cc1	8	6
Cc1nc2c(C(=O)Nc3cnc4n3CCCC4)cccc2[nH]1	2	1
NCC1CCN(Cc2ccccc2Cn2cccn2)C1 (stereo not drawn)	12	9
O=C(C1c2ccccc2Oc2ccccc21)N1CCC(Cn2ccnc2)CC1	-2	-7
CCOC(=O)CSc1ccc(NC(=O)c2ccc(C)cc2)nn1	6	6
O=C(CCC1CCN(C(=O)c2cccs2)CC1)NCc1ccc(F)cc1	-6	-7
Cc1cc(C)c2nc(NCCN(C)C)sc2c1	2	-1
CCCCCCCC(=O)NC(C)C(=O)Nc1nnc(-c2ccccc2)s1 (stereo not drawn)	-1	8
COc1cc(C2C(=C(O)c3ccccc3)C(=O)C(=O)N2CCCn2ccnc2)cc(OC)c1OC (stereo not drawn)	0	-2
C=CCOC(CN1CCN(C(=O)c2ccc(OC)cc2OC)CC1)c1cccc(OC)c1 (stereo not drawn)	-4	8
Cc1ccc(CN(Cc2ccc(F)cc2)C(=O)CN(CCN2CCOCC2)C(=O)c2ccc(Cl)cc2)o1	-11	-16
CCOC(=O)N1CCN(C(=O)CSc2nnc3n2CCN3c2ccc(C)cc2)CC1	1	1
OCCN1CCN(CC/C=C2/c3ccccc3Sc3ccc(C(F)(F)F)cc32)CC1	0	-24
CC(C(=O)N1CCN(C2CS(=O)(=O)CC2O)CC1)N1CCc2ccccc2C1 (stereo not drawn)	2	38
CCCCOC(=O)C(C)Nc1n[nH]c(=O)[nH]c1=O (stereo not drawn)	0	-3
Cc1cc(O)cc(=O)o1	-8	-16
CN(Cc1ccccc1C#N)c1ccc2ccccc2c1	2	2
COc1ccc(-c2csc(-n3[nH]c(C)c(N=Nc4ccc(Cl)c(Cl)c4)c3=O)n2)cc1	-1	-7
CCn1ncc(C(=O)NCCSc2nnc(C)s2)c1C	6	-5
N#CC(=Cc1ccc([N+](=O)[O-])o1)C(=O)NCc1ccco1	-2	-11
CCN(CCOc1ccccc1)C(C)CS(=O)(=O)CC (stereo not drawn)	4	2
C=c1c(C#N)c2[nH]c(N)c(C#N)c(C)c-2/c1=C\c1ccc(-c2ccc([N+](=O)[O-])cc2OC)o1	3	11
O=C(c1cnn2c(C(F)(F)F)cc(-c3ccc4c(c3)OCO4)nc12)N1CCOCC1	-3	-11
Cc1ccc(-n2cnnc2S(=O)(=O)CCOC(C)C)c(C)c1	4	2
CCCC(CCC)C(=O)NC1CC(=O)N(C2Cc3ccccc3C2)C1 (stereo not drawn)	2	0
Cc1csc(NC(=O)CC2CSc3nc4c(cnn4-c4ccc(F)cc4)c(=O)n32)n1 (stereo not drawn)	3	2
CC(=O)n1cc(C=C2C(=O)NC(=S)NC2=O)c2ccccc21	1	6
Cc1ccc(NC(=O)CCCn2nc(C)cc2C)cc1	-9	-8
CCCCCn1c(NCCCOCC)nc2c1c(=O)[nH]c(=O)n2C	0	-1
COc1ccc(NC2CCCN(C3CCN(c4ccccc4C)CC3)C2)cc1OC (stereo not drawn)	4	0
O=C(NN=C1CCCCC1)C1CCN(S(=O)(=O)c2cccs2)CC1	3	38
O=C(CNC(=O)c1ccccc1)NCCN1C(=O)SC(=Cc2ccccc2)C1=O	5	12
CCc1ccccc1NC(=O)CCNC(C)CC (stereo not drawn)	7	7
Cc1cc(N2CCCC2)n2nc(C(F)(F)F)c(-c3ccccc3)c2n1	5	4
N=C1c2ccccc2CN1NC(=O)c1c[nH]c2ccccc12	1	23
COc1cccc(N=Nc2ccc3cccnc3c2O)c1	-1	-4
COC(=O)[C@@H]1[C@H]2C[C@H]3c4[nH]c5ccccc5c4CCN3C[C@@H]2CC[C@@H]1O	-3&-2	-7&19
COc1ccc(C2c3ccsc3CCN2C(=O)CN(C(=O)COCc2ccccc2)C(C)(C)C)cc1 (stereo not drawn)	-5	-5
O=C(CC1COCCN1)N1CCCN(C2Cc3ccccc3C2)CC1 (stereo not drawn)	-3	-3
CC(=O)Nc1ccc(N2C(=N)C(C#N)C(C(F)(F)F)(C(F)(F)F)C=C2C)cc1 (stereo not drawn)	6	3
CCC(=O)Nc1ccc(SCC(=O)N2CCOCC2)nn1	7	-4
Cc1cc(NC(=O)N2CCCC2C2CCCC2)n(C)n1 (stereo not drawn)	4	4
CCn1c(C)c(C(=O)CN(C2CCCCC2)S(=O)(=O)c2ccc(Cl)cc2)c(C)c1C(=O)OC	21	28
Cc1c(C(=O)NCc2cccc([N+](=O)[O-])c2)sc(=O)n1Cc1ccc(C(=O)N(C)C)cc1	9	5
COc1cccc(NC(=O)Nc2ccc(-n3nc(OCC(C)C)nc3-c3ccccc3F)cc2)c1	-1	10
Cc1ccc(-c2nc(C)c(Cc3ccccc3)c(N3CCN(C(=O)C(C)(C)C)CC3)n2)cc1	15	11
Cc1cc(OCC(O)CN(Cc2ccccc2)C(C)(C)C)ccc1[N+](=O)[O-] (stereo not drawn)	8	5
O=C1CC2C(=O)CC1C1C2C1(C(=O)O)C(=O)O (stereo not drawn)	-2	-3
Cc1cccc(-c2nc(C)c(Cc3ccccc3)c(N3CCN(C(=O)c4ccc5c(c4)OCO5)CC3)n2)c1	-4	-3
Cc1ccc(C#N)c(S(=O)(=O)N2CCN(C(c3ccccc3)c3ccc(Br)cc3)CC2)c1 (stereo not drawn)	6	5
Cc1ccnc(NC(=O)CN(C)c2cc(C(F)(F)F)ccn2)c1	-22	-24
CCOC(=O)CN([C@@H]1C[C@@H]2CO[C@H](c3ccccc3)C[C@@H]2C1)S(=O)(=O)c1ccccc1	31	32

Next part
canonical_smiles	NPYLR7 agonist	NPYLR7 agonist max-min
C=CCOC(=O)C1C(C)=Nc2nc(SCCC)[nH]c(=O)c2C1c1cccc(F)c1 (stereo not drawn)	0	-4
O=C1/C(=C\c2ccccc2F)CSc2ccccc21	6	5
COc1ccc(-n2c3c(c(=S)[nH]c2=O)CCC3)cc1	1	-2
CC1(C)CCCN1CC(=O)NCC(F)(F)F	11	4
Cc1nn(CC(=O)N2CCCC3(CC2)CNC(=O)O3)c(=O)c2ccccc12 (stereo not drawn)	9	5
CC(C)CC(=O)N1CCN(c2ccc(Cl)cc2)C(=O)C1C (stereo not drawn)	1	10
CC1=NN(C(=O)c2ccncc2)C(O)(c2ccccc2)C1 (stereo not drawn)	11	5
O=C(Cn1c(=O)[nH]c(=O)c2ccccc21)N1CC=C(c2ccccc2)CC1	9	7
Cc1ccccc1NC(=O)Nc1ccnn1C1CCN(C(=O)C2Cc3ccccc3O2)CC1 (stereo not drawn)	0	-2

Rewritten with values under each structure: part of the list above
Every second line gives: NPYLR7 agonist, NPYLR7 agonist max-min
CC(C)CC(=O)N1CCN(c2ccc(Cl)cc2)C(=O)C1C (stereo not drawn)
  1, 10
CC1=NN(C(=O)c2ccncc2)C(O)(c2ccccc2)C1 (stereo not drawn)
  11, 5

Screening data as filed in PubChem.

An excerpt. The share of hits here may be higher or lower than overall.
